FGF22 binding – shifts melting point of recombinant human FGF22 | recombinant FGF22 thermal shift, SYPRO orange fluorescence; percent of sucrose octasulfate shift, DMSO zero | AID 651658 | 1.5% of 340,000 active | calls only at 9.99 µM;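 active = melting point raised past a set limit in the mean and every replicate; inconclusive = no clear call; three in four hits are not shown here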
Target sequence (Q9HCT0 whole entry, looked up): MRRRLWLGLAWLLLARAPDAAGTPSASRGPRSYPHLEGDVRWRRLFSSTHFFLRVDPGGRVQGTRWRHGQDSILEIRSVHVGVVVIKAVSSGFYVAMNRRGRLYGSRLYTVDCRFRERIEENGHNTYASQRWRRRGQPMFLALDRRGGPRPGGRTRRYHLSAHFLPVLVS
UCH37 DUB inh – human UCH37 deubiquitinating enzyme inhibition; Q9Y5K5; purified proteasome/UCH37, Ub-AMC cleavage fluorescence; inhibition, % (concentration not given with the values); 0.33% of 330,000 active;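 active = mean of two replicates above 20%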;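 also: 0% = compound-free wells with enzyme and 100% = wells lacking proteasome; stock transfer was 100 nL into about 20 µL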
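Schedule: 30 min plus 25 min, room temperature / Material: human UCH37 within purified proteasomes / Technique: AMC fluorescence intensity at 355/460 nm / Buffer or medium: pH 7.4 Tris-HCl (50 mM) with ovalbumin, ATP-MgCl2, DTT / Controls: wells without proteasome as full block, compound-free enzyme plus substrate as uninhibited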
HNF4A DNA FP – change in binding of human HNF4 alpha to DNA; activity change, % at 10 µM; P41235; 0.3% of 360,000 active; AID 1224865; HNF4a-FITC DNA binding, fluorescence polarization, 1 h; in the data active = activity change above about 30%, passing the limit was not always enough;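 also: controls were the assay level and a saturating level of protein; the project sought stronger binding though the title names inhibitors; some compounds called inactive have numbers as strong as hits; positive values seem to mean higher polarization but the record does not say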
Target sequence (P41235 whole entry, looked up): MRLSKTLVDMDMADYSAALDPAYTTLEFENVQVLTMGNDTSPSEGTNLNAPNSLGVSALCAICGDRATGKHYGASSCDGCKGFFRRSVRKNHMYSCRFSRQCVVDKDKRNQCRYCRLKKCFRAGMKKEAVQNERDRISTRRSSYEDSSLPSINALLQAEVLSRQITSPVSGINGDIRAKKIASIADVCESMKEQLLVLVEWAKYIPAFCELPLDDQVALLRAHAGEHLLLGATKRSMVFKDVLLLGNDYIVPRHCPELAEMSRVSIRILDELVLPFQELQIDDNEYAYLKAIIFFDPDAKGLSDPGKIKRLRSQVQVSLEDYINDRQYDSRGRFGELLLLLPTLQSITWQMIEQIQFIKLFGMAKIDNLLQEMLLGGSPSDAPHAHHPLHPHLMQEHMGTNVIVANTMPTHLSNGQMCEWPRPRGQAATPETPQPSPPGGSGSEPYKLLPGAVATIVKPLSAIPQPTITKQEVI
ALR inh – inhibitors of human sulfhydryl oxidase ALR | inhibition, % (test concentration not listed) | AID 485317 | P55789 | purified ALR, DTT oxidation, H2O2 HRP-luminol luminescence | 3.8% of 290,000 active;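 active = mean and each replicate at 75% or more; inconclusive = only one of the two met; inactive = neither met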;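 also: stock transfer was 7.5 nL into about 7.5 µL; 0% = neutral wells and 100% = wells with inactivated enzyme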
LANA-H2B inh – blocks KSHV LANA binding to histone H2A/H2B; Q9QR71; cell-free LANA-H2A/H2B peptide, fluorescence polarization; inhibition, % (concentration not given with the values); 0.6% of 320,000 active; AID 2629; in the data active = inhibition mostly above about 10%, no sharp cut-off; inactive = mostly below about 6.7%;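 also: stock transfer was 7.5 nL into about 10 µL; 0% = median of vehicle wells and 100% = median of positive control wells; one replicate is shown; the record names a cut of 25% in any replicate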
Ecoli growth – blocks Escherichia coli growth | OD600, 23 h; active compounds read low | OD600 absorbance (no concentration beside the values) | 0.21% of 330,000 active;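 active = OD600 absorbance below the run mean of sample wells minus 3.6 SD, in any replicate, cut at about 0.56 in these data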;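 also: stock transfer was 300 nL into about 60 µL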
Beta2AR agonist – activates human beta-2 adrenergic receptor causing internalization. P07550. Am2.2-beta2AR cells, FAP receptor internalization, flow cytometry; reference of the scale not given here. response, % (no concentration beside the values). 0.43% of 340,000 active. AID 504454;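 active = response above a set limit, near 3 SD of response in nonfluorescent compounds, cut at about 42% in these data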;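 also: stock transfer was 100 nL into about 11 µL; a reference agonist was the positive control; negative values mostly stem from fluorescent compounds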
Target sequence (P07550 whole entry, looked up): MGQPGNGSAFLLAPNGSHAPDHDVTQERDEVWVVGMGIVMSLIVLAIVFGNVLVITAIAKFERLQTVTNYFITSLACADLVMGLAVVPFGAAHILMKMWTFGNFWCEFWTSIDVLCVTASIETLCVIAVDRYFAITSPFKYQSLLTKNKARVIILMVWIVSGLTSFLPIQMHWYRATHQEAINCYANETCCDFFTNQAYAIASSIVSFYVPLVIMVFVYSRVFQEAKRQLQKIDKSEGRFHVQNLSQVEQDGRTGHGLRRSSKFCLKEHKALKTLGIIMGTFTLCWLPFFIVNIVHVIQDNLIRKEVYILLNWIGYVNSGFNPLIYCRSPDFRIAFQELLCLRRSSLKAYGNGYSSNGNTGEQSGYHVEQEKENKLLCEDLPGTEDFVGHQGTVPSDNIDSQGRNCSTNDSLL
* marks the source's active call; other numbers are inactive results; i = inactive; ? = inconclusive; nt = not tested or not shown. Some of the compounds tested; count on the stated rates, not on these rows.

FGF22 binding	UCH37 DUB inh	HNF4A DNA FP	ALR inh	LANA-H2B inh	Ecoli growth	Beta2AR agonist	mol
i	1.1	11.3	-2.7	-1.5	0.717	5.8	CCOc1ccccc1NC(=O)C1CCCN(S(=O)(=O)c2ccccc2)C1 (centres undefined)
nt	1.3	-0.2	-2.4	-1.9	0.708	-8.1	COc1ccc(C(=O)N2CCC(O)(c3ccc(F)cc3)CC2)cc1OC
nt	-4.4	1.7	2.2	0.3	0.662	-9.9	O=C1CCCC2=C1C(c1ccc(Cl)cc1)C1C(=O)c3ccccc3C1=N2 (centres undefined)
i	nt	-1.0	12.3	1.7	nt	-2.8	COc1ccc(C(=O)N/N=C/c2c[nH]c3ccccc23)cc1
nt	2.2	-2.1	-1.6	3.9	0.695	-5.7	C=CCN1CCN(C(c2ccccc2)c2nnnn2CCC(C)C)CC1 (centres undefined)
i	6.3	1.8	-5.6	-0.5	0.697	10.2	NS(=O)(=O)c1ccc(NC(=O)COC(=O)C23CC4CC(CC(C4)C2)C3)cc1
i	nt	-5.8	nt	0.8	nt	1.9	COc1ccccc1OCC(=O)OCC(=O)Nc1sccc1C(N)=O
nt	2.1	1.4	nt	3.8	0.794	6.9	NC(=O)CC(NC(=O)OCc1ccccc1)C(=O)O (centres undefined)
i	5.4	-27.4	52.0	-1.1	0.702	12.3	CCCSc1nnc(N2C(=O)C(O)=C(C(=O)c3ccco3)C2c2ccccc2F)s1 (centres undefined)
nt	1.6	1.0	-5.7	1.1	0.689	3.7	CNC(=O)CSc1nnnn1-c1ccc(C)cc1C
nt	2.0	0.2	-3.0	2.6	0.733	7.4	CC12CCC(C(=O)NCc3ccc4c(c3)OCO4)(OC1=O)C2(C)C (centres undefined)
nt	-109.8	2.9	-3.1	3.1	0.719	16.1	COc1cc(-c2cc(C(=O)Nc3nc4ccccc4s3)c3ccccc3n2)cc(OC)c1OC
i	-50.1	3.7	89.2*	-2.3	0.663	-13.5	CCCn1c(/C=C/c2ccco2)nc2ccccc21
i	-3.6	-0.3	-1.6	2.1	0.706	-4.7	O=C(COc1ccc(F)cc1)NNC(=O)c1cc2ccccc2oc1=O
i	4.5	-2.6	0.1	-4.1	0.674	2.8	CN(CC(=O)Nc1cccc(F)c1)C(=O)CSc1ccccc1F
nt	2.5	0.5	21.4	-1.6	0.636	-10.2	C=CCOc1c(Br)cc(CNc2nccs2)cc1OC
i	1.3	0.4	nt	-5.4	0.682	5.8	Cc1cccc(Oc2ccc(S(=O)(=O)N3CCCCC3)cc2NC(=O)C2=COCCO2)c1
i	0.5	-0.3	1.0	5.8	0.72	1.1	COc1ccccc1NC(=O)CSc1nc(=O)n(Cc2ccncc2)c2c1CCCC2
i	0.5	-4.8	-0.9	0.0	0.622	0.6	O=S(=O)(c1ccc(F)cc1)N1CCc2ccccc2C1
i	3.5	-16.4	-16.4	-0.3	0.686	13.9	COc1ccc(NC(=O)Nc2ccc(OCc3ccccc3)cc2)cn1
i	5.4	-1.5	0.2	0.5	0.689	2.0	CC1(c2nnc(-c3ccc(F)cc3)o2)CC(c2c(Cl)cccc2Cl)=NO1 (centres undefined)
i	0.3	3.3	16.2	6.1	0.711	2.5	CC(C)(C)OC(=O)N1CCC(NC(=O)c2nc[nH]c2C(=O)N2CCN(c3ccccc3)CC2)CC1
nt	4.7	-1.2	-2.4	-1.0	0.713	-2.5	CC(CN1CCCCC1)OC(=O)c1ccc2c(c1)OCO2 (centres undefined)
nt	5.6	-1.4	-13.2	-7.0	0.672	3.6	CCNc1nc(NC(C)C)nc(NS(=O)(=O)c2ccc(C)cc2)n1
i	-18.1	-0.3	-20.0	-3.7	0.683	4.0	Cc1cc(C)c2c(=O)[nH]c(SCC(=O)N3CCOCC3)nc2n1
i	5.2	3.2	-7.4	-1.2	0.708	-2.2	Cc1cccc(NS(=O)(=O)c2cccc(C(=O)N3CCCCCCC3)c2)c1
i	-0.6	-3.1	-0.1	-2.4	0.656	-0.3	O=C(NCCCNC(=O)c1cc(Cl)ccc1Cl)c1cnccn1
nt	3.5	11.1	-1.2	-26.3	0.704	0.6	CC(C)(C)OC(=O)N1CCC(c2c(C(=O)O)cnn2-c2ccccc2Cl)CC1
nt	5.8	3.2	11.6	2.2	0.727	-2.9	O=C(COc1cccc2ccccc12)N1CCN(c2ccccc2)CC1
i	2.7	-2.2	-1.4	2.4	0.65	-10.8	COc1ccc(Cl)cc1S(=O)(=O)NC(C)C(=O)NCc1ccc2c(c1)OCO2 (centres undefined)
i	-1.6	-3.7	-22.7	-4.9	0.688	2.2	CCC(=O)Nc1nnc(SCC(=O)NCC2CCCO2)s1 (centres undefined)
i	3.2	-1.9	15.4	-2.4	0.69	2.8	CC(=O)N1CC2([N+](=O)[O-])CN(C(C)=O)CC([N+](=O)[O-])(C1)C2(C)C
i	6.3	-1.7	nt	3.1	0.707	-2.1	Cc1cccn2c(=O)c(/C=C(\C#N)C(=O)NCc3ccco3)c(N3CCCC(C)C3)nc12 (centres undefined)
i	6.8	7.3	-5.2	3.8	0.712	10.3	CCCc1cc(=O)[nH]c(SCC(=O)c2c(C)[nH]c3ccccc23)n1
nt	0.4	0.5	96.7*	-2.1	0.693	1.2	CC(C)NC(=O)Nc1cccs1
i	1.8	-3.1	nt	nt	0.66	6.2	O=C(Cc1cccs1)Nc1ccc(Cl)c(S(=O)(=O)N2CCOCC2)c1
nt	4.1	-2.9	9.8	-3.7	0.765	11.6	Cn1c(=O)n(CCc2ccccc2)c(=O)c2c1nc1n2CCCN1Cc1ccccc1
i	10.5	-0.7	1.3	0.1	0.657	1.5	CCOC(=O)/C(C#N)=C/Nc1ccccc1NS(=O)(=O)c1ccc2c(c1)OCCO2
nt	2.4	6.3	5.0	0.0	0.742	7.2	N#CC1=C(N)OC2=C(C(=O)CCC2)C1CCc1ccccc1 (centres undefined)
nt	1.9	4.1	10.5	0.2	0.691	-13.7	C=CCn1c(SCC(=O)Nc2nccs2)nnc1-c1ccco1
i	1.0	-1.4	-11.2	-6.5	0.64	8.0	Cc1ccc(C(C)(C)C)c(OCCCn2ccnc2)c1
nt	nt	2.7	-25.2	0.6	nt	3.9	COc1ccc(/C=N/NC(=O)Cc2csc(Nc3cccc(C(F)(F)F)c3)n2)cc1C
nt	-1.0	0.2	1.3	-2.0	0.751	-4.5	Cc1cc(C(F)F)n2ncc(C(=O)NCc3ccccc3C(F)(F)F)c2n1
i	5.4	2.2	2.2	-2.9	0.693	17.5	O=[N+]([O-])c1ccc(N2CCCCC2)c(-c2nn[nH]n2)c1
nt	-0.6	-1.8	1.8	3.8	0.68	10.6	O=C(CCN1CCCCC1)c1ccc2c(c1)OCCO2
i	3.0	1.3	1.4	-2.1	0.704	-3.9	CCCN(CC(=O)Nc1cccc(S(N)(=O)=O)c1)CC(=O)Nc1ccc(F)c(F)c1F
i	1.5	2.2	-1.6	3.9	0.74	-3.7	COc1ccc(CNC(=O)Cn2cc3c(n2)CCCCC3)cc1
nt	1.6	3.1	-10.5	4.7	0.708	-5.2	Cc1ccc(S(=O)(=O)N2CCN(Cc3cc(C(C)C)ccc3O)CC2)cc1
i	-0.5	2.0	12.2	-1.0	0.708	-1.3	O=C(CN1C(=O)COc2ccccc21)N1CCCC1
i	3.1	-2.8	nt	nt	0.662	-9.6	C[C@@H]1CN(S(=O)(=O)C(C)(C)C)[C@H](CCO)/C1=C\c1ccccc1
i	0.2	4.2	?	1.6	0.634	4.5	COc1cccc(CC2(CO)CCCN(CC3=Cc4cc(OC)ccc4OC3)C2)c1 (centres undefined)
i	0.9	-4.8	-4.1	-4.6	0.636	3.1	COC(=O)c1c(O)cc(=O)n2c1CCCCC2
nt	0.9	-2.1	nt	3.9	0.663	-2.5	c1ccc2c(c1)nc1sccn12
i	1.1	-0.9	-5.2	-2.0	0.672	-1.8	COc1ccc(N=C2SCC(=O)N2c2ccc(OC)cc2)cc1
i	0.2	-3.3	32.1	2.1	0.717	4.9	COc1ccc(CNC(=O)COC(=O)CCc2c[nH]c3ccccc23)cc1
i	2.7	6.3	-7.0	-5.8	0.665	0.4	CCOC(=O)C1CCCN(C(=O)c2cccc(S(=O)(=O)N(C)c3c(C)n(C)n(-c4ccccc4)c3=O)c2)C1 (centres undefined)
i	0.8	-5.2	-2.7	-3.1	0.702	-11.8	CC(C)Oc1ccc(C(=O)NC(=S)Nc2ccc(CN3CCOCC3)cc2)cc1
i	5.5	-2.3	nt	-2.0	0.703	32.0	CCC1=Nc2cc(C(=O)NCC3CCCO3)ccc2Sc2ccc(Cl)cc21 (centres undefined)
nt	1.2	8.5	-19.2	2.8	0.738	1.3	CC1CCCCC12NC(=O)N(CC(=O)c1ccc[nH]1)C2=O (centres undefined)
nt	2.7	-1.6	1.4	-5.0	0.689	-11.2	CCC(CC)=C(C#N)C(=O)NC1CCCCC1

(list continues)
FGF22 binding	UCH37 DUB inh	HNF4A DNA FP	ALR inh	LANA-H2B inh	Ecoli growth	Beta2AR agonist	mol
i	-9.4	0.3	-39.5	-5.7	0.691	6.8	CCc1cc(=O)oc2cc(C)cc(OC(C)C(=O)NC(Cc3c[nH]c4ccc(O)cc34)C(=O)O)c12 (centres undefined)
nt	-1.0	-7.7	4.0	-12.7	0.707	4.0	CCOC(=O)C1=C(C)Nc2ncnn2C1c1cc(OC)ccc1OC (centres undefined)
nt	nt	-0.5	nt	0.8	nt	16.9	Cc1ccc(S(=O)(=O)N/N=C\c2cc3c(cc2Br)OCO3)cc1
i	3.5	-2.3	nt	6.4	0.698	-3.9	O=C(O)c1ccc(-n2nncc2-c2ccccc2)cc1
i	-1.3	0.6	nt	5.6	0.716	0.3	CC(NC(=O)c1ccco1)C(=O)OCC(=O)N1CCCCCC1 (centres undefined)
i	4.4	2.3	-10.4	-3.1	0.675	-0.1	Cc1ccc(S(=O)(=O)N2CCOCC2)cc1NC(=O)c1ccc(F)cc1F
i	3.5	-3.1	8.5	1.6	0.714	-5.8	Cc1ccc(C(=O)N2CCN(S(=O)(=O)c3sc(C(=O)O)c(C)c3C(=O)O)CC2)s1
nt	3.8	2.2	-4.9	0.8	0.672	8.8	CSc1cccc(CN2CCC(CO)(Cc3cccc(C(F)(F)F)c3)CC2)c1
nt	-1.6	3.5	nt	-1.1	0.699	-0.5	Cc1nn(CC(=O)Nc2ccc(C(=O)N3CCCC3)cc2)c(=O)c2ccccc12
i	2.7	2.3	-1.0	-0.1	0.661	1.4	CCn1c(SCC(=O)Nc2ccccc2Cl)nnc1C1CC1
i	2.8	-4.5	-4.8	0.0	0.709	-3.7	COc1ccc(C(=O)Nc2c3c(nn2-c2ccc([N+](=O)[O-])cc2)CS(=O)(=O)C3)cc1
nt	-5.5	-1.4	-0.2	0.9	0.674	1.2	Cc1cc(C)c(C(=O)CSc2nc(C)cc(C)c2C(N)=O)c(C)c1
i	-0.5	-0.5	1.5	1.9	0.72	1.1	Cc1ccc(NC(=O)c2ccccc2SCC(=O)N2CCCC2)cc1S(=O)(=O)N(C)C
nt	2.0	-1.6	-6.1	-1.8	0.697	0.1	O=C(CNC(=O)c1cccc(F)c1)OCC(=O)N1CCCc2ccccc21
i	-0.7	-4.3	-2.5	-1.3	0.675	0.0	COc1ccc(-c2cc(C(=O)Nc3cccnc3Cl)no2)cc1
nt	2.9	2.6	-6.9	-2.1	0.712	0.0	CCn1c(COc2ccccc2C)nnc1SCC(=O)CC(=O)Nc1ccccc1
i	nt	5.5	nt	-2.9	nt	4.2	CCc1ccc(S(=O)(=O)/N=C2\C=C(Nc3ccc(C(=O)O)cc3)C(=O)c3ccccc32)cc1

Complete entries, quoted from the list. Order of values: FGF22 binding | UCH37 DUB inh | HNF4A DNA FP | ALR inh | LANA-H2B inh | Ecoli growth | Beta2AR agonist
Cc1ccc(S(=O)(=O)N2CCOCC2)cc1NC(=O)c1ccc(F)cc1F reads i | 4.4 | 2.3 | -10.4 | -3.1 | 0.675 | -0.1
CCc1ccc(S(=O)(=O)/N=C2\C=C(Nc3ccc(C(=O)O)cc3)C(=O)c3ccccc32)cc1 reads i | nt | 5.5 | nt | -2.9 | nt | 4.2

High-throughput results: PubChem BioAssay, several laboratories
